# RGS16-Gao: RGS16-Galphao interaction regulator (human); O15492+P09471; bead-based flow cytometry RGS16-Galphao binding, fluorescence; actives lie on both sides; binding response (% of control), % at 10 µM; 220,000 tested, 0.38% active; AID 1441;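 active = below 25% or above 175%, edge rows of some plates excepted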;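 also: Galphao activated by GDP with aluminum fluoride before binding; 100% = wells without compound and 0% = beads without RGS; some results beyond the cut were filed as inactive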
# Target sequence (O15492 whole entry, looked up): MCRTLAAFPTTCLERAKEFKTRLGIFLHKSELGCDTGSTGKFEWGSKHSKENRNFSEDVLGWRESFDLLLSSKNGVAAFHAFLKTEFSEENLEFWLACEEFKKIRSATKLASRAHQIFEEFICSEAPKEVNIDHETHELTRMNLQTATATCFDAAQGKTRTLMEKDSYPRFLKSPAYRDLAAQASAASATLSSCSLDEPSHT
# Target sequence (P09471 whole entry, looked up): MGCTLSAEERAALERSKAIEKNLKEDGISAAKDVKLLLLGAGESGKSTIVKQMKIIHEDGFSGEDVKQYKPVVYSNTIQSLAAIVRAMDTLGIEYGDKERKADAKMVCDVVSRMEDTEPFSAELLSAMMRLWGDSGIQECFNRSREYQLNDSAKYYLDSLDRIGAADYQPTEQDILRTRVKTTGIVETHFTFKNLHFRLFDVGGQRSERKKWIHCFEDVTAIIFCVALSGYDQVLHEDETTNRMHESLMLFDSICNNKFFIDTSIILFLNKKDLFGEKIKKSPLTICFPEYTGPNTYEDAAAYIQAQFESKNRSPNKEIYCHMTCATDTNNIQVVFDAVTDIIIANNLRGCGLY
# INS promoter inh: TRM-6 insulin promoter activity inhibition; TRM-6 cells (human fetal islet line), insulin promoter-eGFP reporter, imaging; reporter expression induced with tamoxifen; inhibition, % at 2 µM; AID 1273; 130,000 tested, 0.9% active;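 active = inhibition above the mean plus 3 SD, with well images judged a real hit on visual review, cut at about 60% in these data, passing the limit was not always enough; inconclusive = inhibition over the cutoff but images rejected on review; inactive = inhibition not above the cutoff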
# GALR2 agonist: agonists of human galanin receptor 2 (GALR2) | O43603 | GALR2-expressing cells, agonist activation read-out | activation, %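 (tested at 5 µM)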 | 140,000 tested, 0.48% active;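 active = above mean plus 3 SD of all compounds, about 5% in these data, not always enough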;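 also: 0% = vehicle buffer wells and 100% = reference agonist at full effect; tested in CHO reporter cells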
# Target sequence (O43603 whole entry, looked up): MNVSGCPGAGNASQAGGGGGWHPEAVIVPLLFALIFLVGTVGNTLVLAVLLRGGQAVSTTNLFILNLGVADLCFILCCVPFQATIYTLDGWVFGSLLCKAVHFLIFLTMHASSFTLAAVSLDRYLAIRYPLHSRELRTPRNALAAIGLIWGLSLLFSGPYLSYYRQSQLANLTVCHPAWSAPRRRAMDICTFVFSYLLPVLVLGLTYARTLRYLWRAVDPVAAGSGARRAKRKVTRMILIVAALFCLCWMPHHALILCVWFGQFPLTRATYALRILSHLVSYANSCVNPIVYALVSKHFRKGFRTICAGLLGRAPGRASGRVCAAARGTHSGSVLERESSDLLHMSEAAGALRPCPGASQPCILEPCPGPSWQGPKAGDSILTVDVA
# HSV replic up: HSV replication enhancement; maximum fold increase; HSV replication augmentation in cells, fold increase; 220,000 tested, 0.005% active;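 active = peak rise of 1.5-fold or more in the series; inconclusive = self-fluorescent or not available for retest; tested in PC3 cells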;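 also: first round at 10 µM; read as green reporter fluorescence; hits show the peak of a series up to 25 µM; 1 = signal of infected wells without compound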
# PKD1 kinase inh: inhibitors of human PKD1 kinase | Q15139 | PKD1 kinase fluorescence polarization assay | inhibition, %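 (about 10 µM by stock and volumes)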 | 200,000 tested, 0.056% active | AID 797;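 active = inhibition of 50% or more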;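 also: controls were vehicle for no effect and a reference inhibitor for full effect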
# INS promoter inh cell count: also measured in INS promoter inh; calls as there; normalized cell count, %; measured here: cell count, toxicity; reference of the scale not given here;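 cells exposed to compound for 48 h; stained nuclei by imaging scaled within each plate; lower means fewer cells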
# HSV replic up primary fold: second read-out of HSV replic up, no call of its own (marks repeat the call); fold increase; compound at 10 µM; measured here: primary screen fold increase 10 uM; tested in PC3 cells;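 GFP signal in the first replicate; 1 = infected wells without compound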
# Starred values were filed as active, the others as inactive; i = inactive; ? = inconclusive; . = not tested or not shown; [ ] = another dose, or the depositor's remark.
SMILES,RGS16-Gao,INS promoter inh,INS promoter inh cell count,GALR2 agonist,HSV replic up,HSV replic up primary fold,PKD1 kinase inh
COc1ccc(C2C3=C(NCCN=C3c3ccccc3)C(=O)N2c2ccccc2)c(OC)c1 (centres undefined),103,-93,68,.,i,0.99,2
Cc1ccc(CN2CCSc3ccc(C(=O)N4CCN(c5ncccn5)CC4)cc32)cc1,99,3,136,0.5,i,1.1,-5
COC(=O)C1Cc2c([nH]c3ccccc23)C(C)N1 (centres undefined),98,-23,99,-1.3,i,0.89,-2
O=S(=O)(c1cccs1)N1CN(C2CCCC2)c2nc3ccccc3nc21,106,.,.,.,i,0.88,.
COc1ccc(-n2ccnc2SCC(=O)Nc2ccc(OC)cc2OC)cc1,91,-44,103,-2.3,i,0.92,9
CS(=O)(=O)N(Cc1ccccc1)c1ccc(C(=O)NN=C2CCCCCC2)cc1,104,7,150,0.0,i,1.1,-4
S=C(N/N=C1\C2CN3CCN(C2)CC1(c1ccccc1)C3)Nc1ccccc1,108,-50,83,0.2,i,1,-5
Cc1ccc(CN2CC(C(=O)Nc3ccc(F)c([N+](=O)[O-])c3)CC2=O)cc1 (centres undefined),107,29,76,.,.,.,-7
C/C(=N\N1CCN(c2ccccc2)CC1)c1ccco1,96,-18,93,-1.1,i,1.1,-2
Cc1ccc(NC(=O)C[n+]2cc(-c3ccccc3)n3c2CCC3)c(C)c1,101,.,.,.,i,0.97,.
COc1ccc(CC(=O)Nc2nc(C)cs2)cc1,101,-17,129,.,i,0.95,-3
Cc1nc(C)c(C(=O)N/N=C/c2ccco2)s1,101,.,.,.,i,0.96,-5
Cc1ccc(C2N(c3nccs3)C(=O)C3CCCN32)cc1 (centres undefined),99,13,113,-2.2,i,0.83,-13
N[C@@H](CO)c1nnc([C@H](CCC(=O)O)NC(=O)C2CCNCC2)o1,104,.,.,.,i,1,6
N#Cc1c(NC(=O)CSc2ncnc3sccc23)oc(-c2ccco2)c1-c1ccco1,96,6,90,-2.7,i,1.2,4
Cc1ccc(Cc2c(C)[nH]c(=S)[nH]c2=O)cc1,98,.,.,.,i,1,.
Cc1cccc(NC(=S)NN2CCN(C)CC2)c1,91,6,110,-2.1,i,0.95,-3
O=C(COC(=O)c1ccco1)Nc1nc2ccc([N+](=O)[O-])cc2s1,107,.,.,.,i,1.1,.
CCCCN1C(=O)/C(=C(/C#N)C(=O)N2CCCC2)c2ccccc21,100,.,.,.,i,0.93,.
COCCn1c(SCC(=O)NNC(=O)c2ccccc2)nc2ccccc2c1=O,104,.,.,0.7,i,0.98,-8
N#C/C(=C\c1ccc(F)c(F)c1)C(=O)NC1CCCCC1,117,.,.,-0.7,i,0.88,3
COC(=O)c1cc(Cl)c(NC(=O)c2cc(OC)c(OC)c(OC)c2)cc1OC,99,-18,127,-3.4,i,1.2,-2
COc1cc(Cl)c(C)cc1NC(=O)CSc1nnc(CCC(=O)O)c(=O)[nH]1,93,.,.,.,i,1,2
CCOc1ccc(N(C(C)C(=O)NN=C2CCCCCCC2)S(C)(=O)=O)cc1 (centres undefined),147,0,70,-0.2,i,1.1,-1
CCN(CC)c1ccc(S(=O)(=O)N2CCOCC2)cc1NC(=O)CN1CCN(Cc2ccccc2)CC1,106,.,.,.,i,0.75,.

# The final 2 compounds of the section above lead into the next:
SMILES,RGS16-Gao,INS promoter inh,INS promoter inh cell count,GALR2 agonist,HSV replic up,HSV replic up primary fold,PKD1 kinase inh
CCOc1ccc(N(C(C)C(=O)NN=C2CCCCCCC2)S(C)(=O)=O)cc1 (centres undefined),147,0,70,-0.2,i,1.1,-1
CCN(CC)c1ccc(S(=O)(=O)N2CCOCC2)cc1NC(=O)CN1CCN(Cc2ccccc2)CC1,106,.,.,.,i,0.75,.
CN1C(=S)SC(C)(C)C1NO (centres undefined),104,-11,129,-1.9,i,1,-3
COc1ccnc(N2CCN(c3cccc(C(F)(F)F)c3)CC2)c1C#N,98,33,113,3.1,i,1.2,-6
O=C(CP(=O)(c1ccccc1)c1ccccc1)Nn1cnnc1,92,7,61,-2.8,i,0.69,-16
CN1CCc2cc3c(c4c2C1CC41CCC(=NO)CC1)OCO3 (centres undefined),87,12,153,-1.5,i,1.1,3
CC1(C)NC(=O)N(CCCSc2ccc(Cl)cc2)C1=O,102,-19,82,-1.7,i,0.97,-9
CCCC(=O)Nc1ccc(NC(=S)NC(=O)c2cccs2)cc1,96,.,.,.,i,0.95,-10
CCN(c1ccccc1)S(=O)(=O)c1cccc(C(=O)OCc2nc3sc(C)c(C)c3c(=O)[nH]2)c1,71,.,.,-1.6,i,1.2,3
CCOC(=O)c1c(NC(=O)c2cccs2)sc(C)c1C,101,8,177,-3.1,i,0.88,0
Cc1ccc(C(C)C)cc1OCCN1CCCC1,99,-15,109,-0.6,.,.,-5
COc1ccc(-c2csc(Nc3ccccn3)n2)cc1,111,-5,103,.,i,0.97,-1
Cc1cnc(NC(=O)c2ccc(-c3nc4ccccc4s3)o2)s1,78,.,.,-2.3,i,0.86,3
Cc1ccc2[nH]c(=O)c(COC(=O)c3ccccn3)cc2c1,108,.,.,-4.0,i,0.96,-10
NC(=O)c1ccc(-n2nnnc2SCC(=O)c2ccc(O)c(O)c2)cc1,101,-58,69,.,i,0.89,11
CSc1nc2ncc3c(n2n1)CC(C)(C)CC3=O,101,37,99,.,i,0.9,-1
CCOC(=O)c1c(C)[nH]c(N=Nc2cc(C(=O)O)cc(C(=O)O)c2)c1C,101,.,.,.,i,0.95,.
Cc1ccc2c(c1)-c1cc(C)nn1C(c1ccc3c(c1)OCO3)N2 (centres undefined),102,-10,141,-1.4,.,.,-8
Cc1ccccc1-n1nc2c(c1NC(=O)/C=C\c1ccc3c(c1)OCO3)CSC2,98,-66,125,-0.8,.,.,-1
Cc1ccc(C(C(=O)NC(C)(C)C)N(Cc2cccs2)C(=O)c2ccc3c(c2)OCCO3)cc1 (centres undefined),50,.,.,-2.5,i,1.1,-3
CCCCNC(=S)NNC(=O)c1ccncc1,104,.,.,.,i,0.93,4
OCCC1CN(Cc2cccn2-c2cccnc2)CCN1CCc1ccccc1 (centres undefined),108,.,.,.,i,1.1,5
Cc1cc(N2C(=O)C3CCC(c4ccccc4)CC3C2=O)no1 (centres undefined),101,-10,110,.,i,0.89,-10
Cc1c(Cl)cccc1NC(=S)N1CCN(Cc2ccccc2)CC1,226,-25,86,-1.3,.,.,4
CCOC(=O)NC(C)N1C(=O)C2C3C=CC(C3)C2C1=O (centres undefined),101,.,.,.,i,1,-4
COc1cc(CNC2CCCC2)cc(OC)c1OC,68,.,.,-0.9,i,0.87,-15
O=C1c2ccccc2C(Nc2ccc(S(=O)(=O)N3CCOCC3)cc2)N1c1ccccn1 (centres undefined),29,.,.,-0.8,i,1.1,-8

# In a second layout: entries from further up.
molecule	RGS16-Gao	INS promoter inh	INS promoter inh cell count	GALR2 agonist	HSV replic up	HSV replic up primary fold	PKD1 kinase inh
Cc1ccc(C(C)C)cc1OCCN1CCCC1	99	-15	109	-0.6	.	.	-5
COc1ccc(-c2csc(Nc3ccccn3)n2)cc1	111	-5	103	.	i	0.97	-1
Cc1cnc(NC(=O)c2ccc(-c3nc4ccccc4s3)o2)s1	78	.	.	-2.3	i	0.86	3
Cc1ccc2[nH]c(=O)c(COC(=O)c3ccccn3)cc2c1	108	.	.	-4.0	i	0.96	-10
NC(=O)c1ccc(-n2nnnc2SCC(=O)c2ccc(O)c(O)c2)cc1	101	-58	69	.	i	0.89	11
CSc1nc2ncc3c(n2n1)CC(C)(C)CC3=O	101	37	99	.	i	0.9	-1
CCOC(=O)c1c(C)[nH]c(N=Nc2cc(C(=O)O)cc(C(=O)O)c2)c1C	101	.	.	.	i	0.95	.
Cc1ccc2c(c1)-c1cc(C)nn1C(c1ccc3c(c1)OCO3)N2 (centres undefined)	102	-10	141	-1.4	.	.	-8
Cc1ccccc1-n1nc2c(c1NC(=O)/C=C\c1ccc3c(c1)OCO3)CSC2	98	-66	125	-0.8	.	.	-1
Cc1ccc(C(C(=O)NC(C)(C)C)N(Cc2cccs2)C(=O)c2ccc3c(c2)OCCO3)cc1 (centres undefined)	50	.	.	-2.5	i	1.1	-3
CCCCNC(=S)NNC(=O)c1ccncc1	104	.	.	.	i	0.93	4
OCCC1CN(Cc2cccn2-c2cccnc2)CCN1CCc1ccccc1 (centres undefined)	108	.	.	.	i	1.1	5
Cc1cc(N2C(=O)C3CCC(c4ccccc4)CC3C2=O)no1 (centres undefined)	101	-10	110	.	i	0.89	-10
Cc1c(Cl)cccc1NC(=S)N1CCN(Cc2ccccc2)CC1	226	-25	86	-1.3	.	.	4
CCOC(=O)NC(C)N1C(=O)C2C3C=CC(C3)C2C1=O (centres undefined)	101	.	.	.	i	1	-4
COc1cc(CNC2CCCC2)cc(OC)c1OC	68	.	.	-0.9	i	0.87	-15
O=C1c2ccccc2C(Nc2ccc(S(=O)(=O)N3CCOCC3)cc2)N1c1ccccn1 (centres undefined)	29	.	.	-0.8	i	1.1	-8

# Additional structures.
SMILES,RGS16-Gao,INS promoter inh,INS promoter inh cell count,GALR2 agonist,HSV replic up,HSV replic up primary fold,PKD1 kinase inh
CCOC(=O)Cn1cnc(-c2ccc([N+](=O)[O-])cc2)c1,86,-55,160,-0.3,i,0.91,-11
CCCN(CCC)S(=O)(=O)c1ccc(NS(C)(=O)=O)cc1,90,56,154,-1.7,i,1,-5
NCCCC[C@H](N)c1nnc([C@H](CC(=O)O)NC(=O)C2CCNCC2)o1,105,.,.,.,i,0.82,7
Cc1c(O)c2c3c(cccc3c1O)C(=O)N(c1ccccc1)C2=O,120,21,106,-0.4,?,.,-3
CC(=O)N(C)c1ccc(NS(=O)(=O)Cc2ccccc2)cc1,106,.,.,-1.5,i,0.95,-8
CN(C(=O)Nc1cnccc1C(F)(F)F)C1CCCCC1,107,.,.,.,i,0.94,.
O=C(Nc1ccon1)c1cc2ccccc2oc1=O,106,-14,121,-1.4,i,1,-5
Cc1nc(-c2ccccc2O)n(-c2ccccc2)n1,95,23,98,-1.5,i,0.93,-1
CCc1nnc(NC(=O)CSc2nnc(Cc3cccn3C)n2C)s1,102,.,.,-2.7,i,1,-3
O=C1N=NC2=C1c1c3ccccc3c(O)n1CC2,101,.,.,.,i,1,.
CCOC(=O)c1cnc2ccc(OCC)cc2c1NCCN1CCOCC1,100,43,91,.,i,1,3
COc1ccc(CC(=O)OCC(=O)NCc2ccccc2Cl)cc1OC,176*[activator],55,98,.,i,0.91,-9
CCCCNC(=O)COC(=O)c1ccc(NC(C)=O)cc1,108,-6,144,.,i,1,0
CN1/C(=C\C(=O)CN2C(=O)NC3(CCCCCC3)C2=O)C(C)(C)c2ccccc21,99,-57,115,-0.3,i,0.91,-3

# Screening data (PubChem BioAssay)
